ALR inh: blocks human ALR sulfhydryl oxidase activity; 3.8% of 290,000 active; AID 485317; purified ALR, DTT oxidation, H2O2 HRP-luminol luminescence; P55789; inhibition, % (test concentration not listed);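 active = mean and each replicate at 75% or more; inconclusive = only one of the two met; inactive = neither met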;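 also: stock transfer was 7.5 nL into about 7.5 µL; 0% = neutral wells and 100% = wells with inactivated enzyme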
Target sequence (P55789 whole entry, looked up): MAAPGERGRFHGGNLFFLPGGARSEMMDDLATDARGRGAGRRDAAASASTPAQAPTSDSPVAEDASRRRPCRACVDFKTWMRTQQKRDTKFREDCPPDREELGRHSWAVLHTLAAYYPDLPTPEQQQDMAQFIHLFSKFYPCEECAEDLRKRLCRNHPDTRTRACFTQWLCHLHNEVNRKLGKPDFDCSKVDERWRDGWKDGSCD
Calb FLC: affects C. albicans growth with fluconazole; C. albicans CaCi-2 (fluconazole-resistant clinical isolate) + fluconazole, Alamar Blue growth, 48 h; growth inhibition, % (no concentration beside the values); 0.57% of 300,000 active; AID 1979;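 active = most replicates above 75%; inconclusive = exactly half above 75%; inactive = most below 75%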;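 also: all wells also contain fluconazole at 8 µg/ml as a sub-toxic cotreatment; 0% = median of DMSO wells and 100% = median of geldanamycin control wells; wells of about 8 µL received 7.5 nL stock; the first replicate is given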
Ecoli rRNA inh: selective bacterial rRNA inhibition in E. coli | GFP signal change (wild-type ribosome), % (test concentration not listed) | AID 720706 | E. coli WT GFP vs humanized-ribosome RFP mutants, fluorescence, 24 h; active compounds read low; DMSO median 0, no signal -100 | 1.6% of 350,000 active;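 active = significant combined selectivity score with lowered wild-type GFP, culture density cut under 30%, mutant RFP and density less affected; inactive = any of these conditions unmet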; also: one replicate is shown; some compounds called inactive have numbers as strong as hits
LANA-H2A inh: blocks KSHV LANA binding to histone H2A/H2B; cell-free LANA-H2A/H2B peptide, fluorescence polarization; Q9QR71; inhibition, % (test concentration not listed); 0.6% of 320,000 active; in the data active = inhibition mostly above about 10%, no sharp cut-off; inactive = mostly below about 6.7%;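 also: stock transfer was 7.5 nL into about 10 µL; 0% = median of vehicle wells and 100% = median of positive control wells; one replicate is shown; the record names a cut of 25% in any replicate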
A1 inh: inhibitors of the anti-apoptotic protein A1, read as caspase activation | 0.066% of 330,000 active | caspase activation, % (no concentration beside the values) | MEF A1-2A-BIM cells, Caspase-Glo 3/7 luminescence, 3 h; percent of clofoctol response, vehicle zero;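 active = over half of replicate activation scores above 10%, or exactly half above 10 with the replicate mean above 10; inconclusive = replicate mean below 10 yet half the replicates above 10; inactive = over half of replicates below 10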;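 also: wells of about 30 µL received 50 nL stock; many hits fall short of the cut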
Beta cell apopt: beta cell apoptosis inhibition; INS-1E cytokine-induced death, ATP luminescence, 48 h; percent of positive-control rescue, neutral wells zero; protection from apoptosis, % (concentration not given with the values); 0.8% of 300,000 active; AID 435005;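 active = all replicates at 75% or more, or half of them and the mean; inconclusive = half reach 75% but not the mean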;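 also: 0% = cytokine-treated negative control wells and 100% = positive control rescue; higher means more ATP so stronger rescue from cytokine killing; wells of about 40 µL received 100 nL stock; the first replicate is given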
B2AR ag: activates human beta-2 adrenergic receptor causing internalization; P07550; Am2.2-beta2AR cells, FAP receptor internalization, flow cytometry; reference of the scale not given here; response, % (no concentration beside the values); 0.43% of 340,000 active; AID 504454;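 active = response above a set limit, near 3 SD of response in nonfluorescent compounds, cut at about 42% in these data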;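 also: stock transfer was 100 nL into about 11 µL; a reference agonist was the positive control; negative values mostly stem from fluorescent compounds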
Target sequence (P07550 whole entry, looked up): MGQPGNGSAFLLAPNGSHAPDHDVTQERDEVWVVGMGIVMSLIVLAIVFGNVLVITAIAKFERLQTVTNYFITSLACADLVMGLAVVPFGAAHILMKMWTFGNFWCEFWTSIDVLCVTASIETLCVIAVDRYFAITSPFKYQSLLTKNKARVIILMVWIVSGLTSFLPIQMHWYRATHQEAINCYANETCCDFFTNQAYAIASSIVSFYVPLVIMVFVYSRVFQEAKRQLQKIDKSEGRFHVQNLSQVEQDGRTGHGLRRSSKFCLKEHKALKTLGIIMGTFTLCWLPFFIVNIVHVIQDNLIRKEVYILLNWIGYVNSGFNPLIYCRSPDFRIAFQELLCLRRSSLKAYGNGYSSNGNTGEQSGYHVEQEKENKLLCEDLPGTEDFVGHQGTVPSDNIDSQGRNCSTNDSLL
T cruzi inh: blocks replication of Trypanosoma cruzi. T. cruzi beta-gal in NIH3T3, luminescence, 90 h. inhibition, % (no concentration beside the values). 1.4% of 300,000 active. AID 1885;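 active = mean inhibition across valid replicates above about 55%, limit read from the data; inconclusive = mean below that limit but half or more replicates reach it; inactive = mean below it, under half of replicates reach it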;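 also: signal also drops with host cell toxicity which is not excluded here; 0% = plate median of DMSO wells and 100% = zero luminescence signal; higher percent means less beta-gal luminescence so fewer parasites; stock transfer was 50 nL into about 50 µL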
Ecoli rRNA inh OD600: also measured in Ecoli rRNA inh; calls as there; OD600 change, %; measured here: OD600 growth;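 optical density of the mix in the first replicate; 0 = DMSO median and -100 = no signal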
Ecoli rRNA inh RFP: also measured in Ecoli rRNA inh; calls as there; RFP signal change, %; measured here: RFP humanized mutant strains;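 first replicate; 0 = DMSO median and -100 = no signal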
An asterisk follows results filed as active; ? = inconclusive; . = not tested or not shown; & = joins results of further samples.

SMILES	ALR inh	Calb FLC	Ecoli rRNA inh	Ecoli rRNA inh OD600	Ecoli rRNA inh RFP	LANA-H2A inh	A1 inh	Beta cell apopt	B2AR ag	T cruzi inh
S=C(/N=c1/sccn1Cc1ccccc1)NC1CC1	-1.4	24.1	-15.7	-4.2	1.7	2.5	-0.1	3.3	-4.8	-31.7
Cc1cc(Br)ccc1NC(=O)CNC(=O)CSc1nccn1C	-0.9	.	10.5	6.5	2.8	-1.5	-0.4	-0.4	-5.8	.
CC(NC(=O)CCCCCNC(=O)N1CCn2c1nc1ccccc12)c1ccccc1 (centres undefined)	91.6*	26.9	-21.2	-18.7	4.8	9.2	0.3	4.6	0.7	22.6
C[C@H](CO)N1C[C@H](C)[C@@H](CN(C)CC2CC2)Oc2c(NS(=O)(=O)c3ccccc3)cccc2C1=O	3.7	.	1.6&13.3	3.5&9.6	-5.8&4.7	-3.8	2.1	2.2	1.3	.
O=C1CN2C(=Nc3ccc(Cl)cc3C2c2ccccc2)CN1 (centres undefined)	1.1	87.5*	.	.	.	-1.8	0.6	0.0	5.5	17.4
O=C(Nc1nc2ccccc2s1)C1c2ccccc2Oc2ccccc21	34.2	0.3	.	.	.	-4.4	-0.1	14.7	6.1	11.7
O=C(COC(=O)CNC(=O)c1ccc(F)cc1)NC1CCCc2ccccc21 (centres undefined)	-0.2	.	-0.1	1.3	-0.3	-1.0	2.1	-4.5	1.9	.
CC1=NN2C(=N)/C(=C\c3cc(C)n(-c4ccccc4)c3C)C(=O)N=C2S1	-3.5	-23.0	2.6	3.5	10.7	-3.2	1.2	.	-3.1	-7.3
CCOC(=O)c1cnc2nc(NCc3ccc(OCc4ccccc4)cc3)[nH]n2c1=O	-0.4	8.1	.	.	.	3.0	-0.2	-2.9	0.1	3.7
COCCNC(=O)C(NC(=O)C1CCCCC1)C12CC3CC(CC(C3)C1)C2 (centres undefined)	-0.6	-32.6	15.3	17.2	-0.2	3.3	1.4	-3.2	9.1	-6.4
CC1(C)Cc2nc(Cl)c(C(=O)O)cc2CO1	0.5	13.2	15.3	14.7	1.4	-7.2	0.2	-1.7	0.3	-9.8
COc1ccc(C(=O)COC(=O)Cc2n[nH]c(=O)c3ccccc23)c(OC)c1	-0.3	5.1	1.7	4.0	2.2	4.2	0.9	0.7	-0.3	-7.4
Cc1ccc(S(=O)(=O)N(C)Cc2ccccc2)cc1C(=O)N1CCCCC1	-0.2	-4.3	-9.8	-22.9	-1.7	-1.4	0.9	0.5	1.6	-4.3
Cc1ccc(C(=O)N2CC(C)CC(C)C2)cc1S(=O)(=O)N1CCCCC1 (centres undefined)	.	.	-25.7	-28.6	-17.8	1.5	-0.6	-4.7	25.4	.
CC1(C)CC(=O)C2=C(C1)OC(=O)CC2c1cccs1 (centres undefined)	-2.3	15.1	8.6	3.4	-3.3	-6.4	0.1	-1.4	0.1	6.1
Cc1cc(C(=O)N2CCC(C(N)=O)CC2)c(C)o1	.	.	.	.	.	-24.3	0.6	-2.0	-3.4	.
Cc1cccc(C(=O)OCC(=O)NC(=O)c2ccccc2)c1O	-4.6	.	-8.2	-4.1	-1.6	-2.8	-0.4	-0.8	-8.8	4.0
COCCOCCn1c(CCCO)nc2ccccc21	-4.7	-3.8	.	.	.	-0.8	-3.5	-3.7	4.5	-3.2
O=C1CC(c2ccc(F)cc2)CC(O)=C1C1NCCc2ccccc21 (centres undefined)	0.8	?	.	.	.	4.9	-1.0	0.9	-3.0	-1.7
Cc1cc(S(=O)(=O)N2CCCc3ccccc32)ccc1-n1cnnn1	-3.1	20.7	-7.4	-17.3	-0.8	-0.8	-0.1	-3.2	-3.8	6.8
COc1ccccc1NC(=O)COc1ccc(C(=O)NCc2ccccc2)cc1OC	-8.1	.	-3.6	4.3	0.8	.	-0.2	-2.9	5.8	.
Cc1ccc(/C=N/NC(=O)C(C)NC(=O)c2ccccc2)cc1 (centres undefined)	-5.4	-9.3	11.9	14.3	-1.5	-1.7	-0.5	-6.0	0.1	-14.4
CN(CC(=O)Nc1ccc2c(c1)OCO2)CC(=O)Nc1ccc(F)c(F)c1F	.	.	0.2	5.7	4.0	-2.9	0.3	3.1	-2.4	.
CC(=O)Nc1ccc(Cc2ccc3[nH]c(=O)cc(C)c3c2)cc1	21.5	.	.	.	.	-3.7	-0.1	2.9	.	-2.2
COc1ccc(OCC(=O)NCCc2ccc(S(N)(=O)=O)cc2)cc1	0.1	-22.3	.	.	.	-0.2	0.9	-10.0	-1.1	-6.6
CCOC(=O)c1ccc(N2N=C(C)/C(=C/C=C/c3ccco3)C2=O)cc1	16.2	19.7	.	.	.	-3.5	0.1	5.2	5.2	-4.8
CN(C)S(=O)(=O)c1ccc(N2CCOCC2)c(C(=O)NCc2ccc3c(c2)OCO3)c1	.	.	.	.	.	-1.8	-1.0	2.7	2.0	.
O=C(O)C1CC(=O)N(CCc2c[nH]c3ccccc23)C1 (centres undefined)	-2.4	-4.3	.	.	.	-3.0	0.2	-8.6	-2.3	-8.2
Cc1ccc(-c2cc(Cc3ccc(N(C)C)cc3)c(=O)[nH]n2)cc1	12.7	11.5	-9.0	3.1	1.4	-4.7	0.1	0.6	6.3	11.4
COc1ccc(S(=O)(=O)N2CCC(NC(=O)c3cccc(F)c3)CC2)cc1	-3.9	-6.1	4.7	1.7	-3.1	-0.6	0.4	-0.4	-1.5	-7.7
CC[N+](C)(CC)CC(O)COCC1COc2ccccc2O1 (centres undefined)	-4.3	-5.4	.	.	.	-4.6	1.1	-9.5	-7.3	-4.9
COc1ccc(Br)c(C(=O)OCC(=O)N2CCc3ccccc32)c1	-2.8	.	9.9	7.5	2.8	-1.7	-3.9	-2.3	4.5	.
O=C(NCc1nnc2c(C(F)(F)F)cc(Cl)cn12)C1CCCC1	-43.0	-3.4	1.1	5.6	1.3	8.4	-0.3	-2.9	-3.5	-4.7
Cc1ccc2nc(N=C(N)N)nc(C)c2c1	-6.5	-7.2	-18.1	-23.1	-0.4	1.8	0.0	.	-2.0	34.8
CC(NC(=O)c1cc(=O)[nH]c2ccccc12)c1ccc(F)cc1F (centres undefined)	-2.6	4.8	10.2	13.1	0.8	1.8	0.1	0.7	7.6	-3.8
O=C1CCc2cc(S(=O)(=O)N3CCN(c4ccc(F)cc4)CC3)cc3c2N1CC3	-0.1	2.4	14.5	23.5	-3.6	0.9	0.3	2.2	-0.1	-5.5
O=c1cc(Nc2cccc(Br)c2)[nH]c(=O)[nH]1	-5.9	5.0	6.9	2.1	3.6	-2.8	-0.8	-8.1	4.7	-4.3
COc1ccc(N2C(=O)CC(Cc3ccccc3OC)C2=O)cc1 (centres undefined)	-21.1	-4.2	-4.5	-3.1	-1.9	2.5	1.4	.	1.0	-2.6
Cc1c(Cl)cccc1NC(=S)NC(=O)CCN1C(=O)c2ccccc2C1=O	3.3	15.3	16.5	18.9	3.3	1.1	0.1	2.3	0.8	-11.8
O=C(CNS(=O)(=O)c1ccc(Br)s1)Nc1ccc2c(c1)OCCO2	-32.3	-2.6	.	.	.	-2.7	0.4	-6.4	-5.9	-1.1
O=[N+]([O-])c1ccc(Cl)c(S(=O)(=O)NCCc2ccccn2)c1	-16.8	.	-2.9	8.3	0.8	4.5	-1.1	3.6	-2.1	.
CCc1nc(Nc2ccc(OC)cc2OC)c2oc3ccccc3c2n1	9.4	2.0	-0.2	12.9	-3.9	-0.6	0.3	6.6	0.5	21.9
CC(C)C(=O)NC(=S)Nc1sc2c(c1C(N)=O)CCCC2	63.0	12.3	.	.	.	3.5	0.2	1.4	-20.3	0.3
CC(C)Cc1nc2oc3c(NCc4cccnc4)ncnc3c2c2c1CCC2	-7.3	3.0	-1.6	-3.0	-5.3	4.2	-0.8	-5.5	-17.5	-9.2
CN(C(=O)CC1C(=O)NCCN1Cc1c(F)cccc1Cl)C1CCOCC1 (centres undefined)	-7.6	-13.5	3.1	6.1	-1.1	9.2	0.1	0.1	2.0	-14.0
O=[N+]([O-])c1cccc(CSc2nnc3ccccn23)c1	-6.8	-9.1	11.9	17.5	1.0	2.1	0.2	-5.5	-5.5	-3.3
S=c1[nH]nc(Cn2cnc3ccccc32)n1-c1ccccc1Cl	52.7	0.8	2.6	6.8	-3.3	2.4	-0.1	-0.2	-0.6	-10.2
CC(C)CCn1c(N2CCc3ccccc3C2)nc2c1c(=O)[nH]c(=O)n2C	0.5	1.1	8.5	9.4	0.1	-6.7	0.1	8.4	-11.4	13.6
CC1CCN(CCCOc2ccc(Br)cc2Cl)CC1	-2.3	-8.9	-0.6	-3.9	3.3	-6.2	0.3	5.1	-2.4	33.8
O=C(O)c1cccc(NC(=S)N/N=C/c2ccccc2OCc2ccc(Br)cc2)c1	10.7	?	-24.5	-33.0	0.5	7.9	-0.2	4.4	40.1	6.7

Further entries
SMILES	ALR inh	Calb FLC	Ecoli rRNA inh	Ecoli rRNA inh OD600	Ecoli rRNA inh RFP	LANA-H2A inh	A1 inh	Beta cell apopt	B2AR ag	T cruzi inh
COC(=O)CCC(=O)Nc1cc(OC)c(OC)cc1Cc1nccc2cc(OC)c(OC)cc12	-2.3	-1.1	7.5	9.7	0.7	6.7	-0.1	2.0	-6.9	-13.0
Cc1ccc(NC(=O)CN2C(=O)S/C(=C/c3ccc(-c4cc(C(=O)O)ccc4C)o3)C2=O)cc1C	-19.7	18.3	.	.	.	4.8	-0.3	6.5	11.9	-6.9
COc1ccc(-c2cc(=O)oc3cc(OC(C)C(=O)NC4CC4)ccc23)cc1 (centres undefined)	.	7.0	.	.	.	3.9	-0.3	-4.9	3.3	-32.0
C[C@H](NC(=O)c1ccco1)C(=O)NNC(=O)c1ccc(F)cc1	2.2	.	15.6	19.1	1.5	-6.1	-0.2	-6.3	-7.4	.
CCOC(=O)c1cc2sccc2n1CC(=O)N1CCN(C(=O)c2ccco2)CC1	-1.0	-1.2	.	.	.	-14.5	-0.1	.	-0.1	4.1
CN(C)c1c([N+](=O)[O-])ncn1C	-6.5	-15.5	.	.	.	4.1	0.3	-1.2	0.5	-11.1
CCN1CCN(Cc2ccc(NC(=O)c3cc(NC(=O)c4cncc(-c5ccc(C#N)cc5)c4)cc(OC)c3)cc2C(F)(F)F)CC1	-7.3	1.4	0.1	23.3	6.9	-2.2	0.7	86.7*	39.1	50.0
O=C(CSc1nnc(C2CC2)n1Cc1ccccc1)NCc1ccccc1	-5.6	-0.8	.	.	.	9.9	-0.4	4.3	-0.8	7.1
Cn1c(SCC(=O)Nc2ccc3c(c2)OCCO3)nnc1C(F)(F)F	-7.7	.	16.1	6.5	1.6	5.1	0.6	0.3	-5.2	.
CC1CC(C)CN(CC(O)COCc2ccccc2F)C1 (centres undefined)	-2.1	5.9	12.0	-3.2	-0.1	-0.4	0.9	-1.1	8.5	-24.2

Source: PubChem

A portion of the library, so the mix of outcomes need not match the whole.
